Screening data (PubChem)
Mtb H37Rv: M. tuberculosis H37Rv growth inhibitors, H37Rv strain (AID 1626); 0.95% of 220,000 active; M. tuberculosis H37Rv growth inhibition; higher % means a stronger effect; one-dose inhibition, % at 10 µM; IC50 in µM for titrated hits;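 active means confirmed in a dose series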;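 further: bacteria incubated seven days before Alamar blue readout; 0% = bacteria only wells and 100% = bacteria with antibiotic wells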
YopH inh: blocks Yersinia enterocolitica YopH tyrosine phosphatase | inhibition, %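 (about 10 µM by stock and volumes)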 | fluorescence Ex485/Em525 | 0.16% of 140,000 active | AID 898;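 active means inhibition of 50% or more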;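 further: controls were vehicle for no effect and minimum signal wells for full effect; inactives centre near -20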
Arbovirus anti: arbovirus infection inhibition; arbovirus infection cell-based antiviral screen; inhibition, % at 10 µM; 0.37% of 200,000 active; AID 1251;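 active means inhibition from about 30%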;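 further: bluetongue infection of BSR cells; cell survival read as ATP light after 72 h; 0% = infected wells without compound and 100% = uninfected wells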
Mtb bLac sens: beta-lactam sensitization of Mtb H37Rv; AID 434955; 0.27% of 330,000 active; inhibition, % at 25 µM; M. tuberculosis H37Rv growth with meropenem, percent inhibition; hits of this screen are not shown here;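 active means about 74% or more and at least 40 points above the plate without the antibiotic, then above 30% in a dose series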;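 further: growth measured after seven days incubation then overnight dye step; 0% = bacteria only wells and 100% = bacteria with antibiotic; twin plates without the antibiotic show which effects depend on it; some results filed as inactive read as strong as hits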
RecA splice inh: Mtb RecA intein splicing inhibition; P9WHJ3; cell-free RecA intein splicing, fluorescence; inhibition, %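 (about 9 µM by stock and volumes)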; 0.75% of 290,000 active; in the data active means inhibition above about 30%;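 further: 0% = vehicle wells and 100% = reference inhibitor control wells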
Target sequence (P9WHJ3 whole entry, looked up, canonical isoform): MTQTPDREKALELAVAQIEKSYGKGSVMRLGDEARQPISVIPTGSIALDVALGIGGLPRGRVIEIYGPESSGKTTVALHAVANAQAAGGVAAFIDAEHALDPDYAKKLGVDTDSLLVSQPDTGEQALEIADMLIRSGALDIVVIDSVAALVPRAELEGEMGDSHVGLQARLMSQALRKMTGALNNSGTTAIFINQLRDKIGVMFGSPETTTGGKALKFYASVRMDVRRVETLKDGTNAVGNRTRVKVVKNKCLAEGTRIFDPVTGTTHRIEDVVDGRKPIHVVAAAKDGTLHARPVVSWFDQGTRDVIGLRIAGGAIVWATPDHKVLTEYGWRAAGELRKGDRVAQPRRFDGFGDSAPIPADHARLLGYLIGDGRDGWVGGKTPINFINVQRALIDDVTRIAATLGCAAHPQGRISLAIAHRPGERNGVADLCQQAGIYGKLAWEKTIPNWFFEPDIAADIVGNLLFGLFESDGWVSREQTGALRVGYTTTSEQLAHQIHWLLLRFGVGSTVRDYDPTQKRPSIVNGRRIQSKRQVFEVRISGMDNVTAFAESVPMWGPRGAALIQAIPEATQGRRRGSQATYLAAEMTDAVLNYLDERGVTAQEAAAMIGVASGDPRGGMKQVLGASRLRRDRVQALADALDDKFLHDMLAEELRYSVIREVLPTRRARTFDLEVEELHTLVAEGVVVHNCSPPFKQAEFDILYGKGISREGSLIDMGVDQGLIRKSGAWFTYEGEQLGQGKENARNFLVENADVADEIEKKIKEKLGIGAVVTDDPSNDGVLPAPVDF
Arbovirus anti repeat: further read-out of Arbovirus anti, marked with its call; inhibition, %; measured here: 10K subset replicate screen; many hits read low in the repeat;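 first of two repeat runs on a subset; 0% = infected and 100% = uninfected wells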
Numbers without * were called inactive; . = no result given.

SMILES	Mtb H37Rv	YopH inh	Arbovirus anti	Mtb bLac sens	RecA splice inh	others
CN(C)CCCN=Cc1c(O)n(Cc2ccccc2)c(=O)c2ccccc12	-2%	-9	-27	4	4.6
COc1ccc(NC(=S)NC(=O)c2cncc(Br)c2)c(OC)c1	.	.	.	-3	2.8
COC(=O)c1ccc(NC(=O)C2CC2)o1	-1%	-32	-3	-3	-1.6
COc1ccc(CC(=O)N(CCN(C)C)CC2CCCN(Cc3ccccc3F)C2)cc1 (stereo unspecified)	.	.	.	-2	2.9
CCN(C(=O)c1cccnc1)c1ccccc1	-10%	-11	2	-12	3.3
COc1ccc(-c2cc(C(=O)Nc3ccc(Cl)cc3Cl)c3ccccc3n2)cc1OC	29%	-16	-23	94	-29
CSc1cccc(NC(=O)CSc2ccc(Cl)cc2)c1	69%	-24	-8	94	1.8
O=C(/C=C/c1ccc(Cl)cc1)N1CCOCC1	.	.	.	0	-2.5
COc1ccc(CN2CCCC(C(=O)N(C)Cc3ccccc3)C2)cc1OC (stereo unspecified)	-8%	-45	-3	-2	-0.5
Cc1cccc(N=C2NC(=O)/C(=C/c3cccn3C)S2)c1	12%	.	.	56	3.9
CCSc1nnc(NC(=O)C2CC(=O)N(Cc3ccc(C)cc3)C2)s1 (stereo unspecified)	-1%	.	2	-3	4.3
Cc1cccc(NC(=O)CSCC(=O)N=c2sccn2C)c1	.	.	.	2	0.1
C/C=C/c1ccc(OCC(O)CNCC(c2ccc(OC)cc2)N(C)C)c(OC)c1 (stereo unspecified)	.	.	.	4	-1.1
CCC1CCC/C1=N\NC(=O)c1cc(C)[nH]n1 (stereo unspecified)	-7%	-28	11	8	0.0
Cc1ccc(S(=O)(=O)Nc2ccc(SC(F)F)cc2)c(C)c1	7%	-19	-21	3	0.9
Cc1ccc(S(=O)(=O)N(CC(=O)Nc2cccnc2)c2cccc([N+](=O)[O-])c2)cc1	.	.	.	-11	-1.6
O=C(OC(C(=O)NCc1cccs1)c1ccccn1)c1cccs1 (stereo unspecified)	3%	5	-3	-4	0.3
CC(C)(C)NC(=O)C(=O)NNC(=O)c1ccccc1Br	-25%	.	4	1	-0.7
C/C(=N\NC(=O)COc1ccc(C)cc1C(C)C)c1ccc(-n2ccnc2)cc1	13%	-24	-28	70	0.7
C=CCNC(=O)c1onc(CSc2cc(C)cc(C)c2)c1C(=O)NCC=C	4%	.	.	-8	0.3
C/C(Cn1cnc([N+](=O)[O-])n1)=N/NC(=O)COc1ccccc1Cl	-6%	-30	-6	3	-0.5
N#Cc1ccccc1/C=N/Nc1nc(-c2ccccc2)c2cc(Cl)ccc2n1	3%	-42	-17	-1	0.3
COc1cc(OC)cc(C(=O)OCC(=O)N(C)c2ccccc2)c1	.	.	.	4	2.6
O=[N+]([O-])c1cc(C(F)(F)F)ccc1NCCCN1CCOCC1	8%	.	-3	-2	-1.4
OCC1(CCCc2ccccc2)CCN(Cc2cc(F)ccc2F)CC1	11%	.	10	-14	2.8
O=S(=O)(c1ccc2c(c1)OCCO2)N1CCN(c2nc3ccccc3s2)CC1	-2%	-7	-7	14	0.1
COc1ccc(N2C(=O)CC(NC3CCCCNC3=O)C2=O)cc1 (stereo unspecified)	-4%	-11	-11	-10	-4.2
Cn1ccnc1SCC(=O)Nc1cccc([N+](=O)[O-])c1	-6%	.	-3	-4	-0.6
Cc1ccccc1CNCCCSc1ncccn1	.	.	.	1	-134
CCn1c(=N)n(CC(O)c2ccccc2)c2ccccc21 (stereo unspecified)	-3%	-2	2	-18	1.6
COc1ccc2sc(NCc3ccccc3)nc2c1	.	.	.	-3	1.7
O=c1oc2ccc(Cl)cc2nc1/C=C(\O)c1cccs1	7%	.	.	95	-4.3
C=C1[C@H]2C[C@H]3[C@H]4N5C[C@]6(C)CCC[C@]47[C@H]([C@H]2O)[C@]3(C[C@]5(O)[C@H]67)[C@@H]1O	-6%	.	.	-10	0.5
Cc1cccc(C)c1NC(=O)CN(C)CC(=O)Nc1ccccc1Br	7%	-32	5	6	-0.5
COc1ccc(S(=O)(=O)NNC(=O)c2sccc2-n2cccc2)cc1	6%	.	-2	5	4.6
CCOC(=O)C(C)Sc1nnc2c3ccccc3n(C)c2n1 (stereo unspecified)	.	.	.	69	1.5
O=C(Nc1c(C(=O)Nc2cccc3ccccc23)cnn1-c1ccccc1)c1ccco1	-4%	-49	13	26	1.8
COc1cc(CNCc2cccnc2)ccc1OCc1ccccc1	4%	.	7	-2	0.1
O=C1CCCC/C1=C\Nc1ccccc1C(=O)O	-9%	-6	0	-5	0.5
CN1CN(c2cccc([N+](=O)[O-])c2)CN=C1N[N+](=O)[O-]	4%	.	1	6	1.5
CN1CCN(C(=O)COc2ccc(S(=O)(=O)NC3CCCCC3)cc2Cl)CC1	.	.	.	-3	-0.1
COc1cc(/C=N/NC(N)=S)ccc1OCC(=O)N1CCOCC1	-12%	-10	-4	31	-7.1
C[C@H]1CCC[C@]2(O[C@H](CCO)C[C@H](O)[C@H]2O)O1	-6%	.	.	-6	-0.3
COc1ccc(OCC(=O)Nc2c3c(nn2C(C)(C)C)CSC3)cc1	6%	.	0	2	-1.7
O=c1c2ccccc2ncn1-c1ccc(Cl)cc1Cl	1%	.	.	1	6.3
COc1ccc(CN2CCN(CCSc3ccc(C)cc3)CC2)c(OC)c1OC	.	.	.	-2	1.4
CN(CCc1ccccn1)C(=O)CCC1CCCN(C(=O)c2c3c(nn2C)CCCC3)C1 (stereo unspecified)	-2%	.	0	-8	0.2
CCN(CC)S(=O)(=O)c1cccc(C(=O)NNC(=O)c2ccc3[nH]c(=O)c(=O)[nH]c3c2)c1	.	.	.	-9	0.3
Cc1ccc(S(=O)(=O)/N=C/c2cc(Br)ccc2O)cc1	3%	.	0	-6	-3.8
CN(C)CC1CCCCC1C1(O)c2ccccc2CSc2sccc21 (stereo unspecified)	-1%	-10	-26	-4	.
The list goes on:
SMILES	Mtb H37Rv	YopH inh	Arbovirus anti	Mtb bLac sens	RecA splice inh	others
CCOC(=O)C(O)(c1ccc(NC(=S)NC(=O)c2ccc(Cl)cc2Cl)c(C)c1)C(F)(F)F (stereo unspecified)	16%	-10	-5	0	5.2
CC12CCC(c3c(C(=O)O)nn(-c4ccccc4)c31)C2(C)C (stereo unspecified)	-7%	4	10	3	2.1
Cc1nc2nc(SCC(=O)NCCCN3CCCCCC3)nn2c(C)c1Cc1ccccc1Cl	.	.	.	2	6.1
CCn1c(SCC(=O)Nc2cc(NC(C)=O)ccc2OC)nnc1-c1ccncc1	-6%	-13	2	.	-1.6
CC1CCCCN1C/C=C/c1ccccc1[N+](=O)[O-] (stereo unspecified)	-6%	-35	5	-5	-3.9
COc1cccc(Nc2nnc(SCC(=O)N3CCOCC3)s2)c1	-6%	-44	-4	0	0.2
Cc1cnc(NS(=O)(=O)c2ccccc2)c(Br)c1	4%	.	.	-2	.
CCN(CC(=O)Nc1ccc2c(c1)OCCO2)CC(=O)Nc1ccc2c(c1)OCO2	-4%	.	-1	-8	-0.2
O=C(CSc1cccc[n+]1[O-])Nc1ccc2c(c1)OCCO2	0%	.	6	-1	0.6
CNC(=O)CSc1ncnc2c1cnn2-c1ccccc1	-3%	.	-2	-6	2.3

Sorted by molecular weight (smallest number first): part of the list above.
SMILES	Mtb H37Rv	YopH inh	Arbovirus anti	Mtb bLac sens	RecA splice inh	others
CCOC(=O)C(C)Sc1nnc2c3ccccc3n(C)c2n1 (stereo unspecified)	.	.	.	69	1.5
O=C(CSc1cccc[n+]1[O-])Nc1ccc2c(c1)OCCO2	0%	.	6	-1	0.6
Cc1ccc(S(=O)(=O)/N=C/c2cc(Br)ccc2O)cc1	3%	.	0	-6	-3.8
CN(C)CC1CCCCC1C1(O)c2ccccc2CSc2sccc21 (stereo unspecified)	-1%	-10	-26	-4	.
CCSc1nnc(NC(=O)C2CC(=O)N(Cc3ccc(C)cc3)C2)s1 (stereo unspecified)	-1%	.	2	-3	4.3
C/C=C/c1ccc(OCC(O)CNCC(c2ccc(OC)cc2)N(C)C)c(OC)c1 (stereo unspecified)	.	.	.	4	-1.1
COc1ccc(CN2CCN(CCSc3ccc(C)cc3)CC2)c(OC)c1OC	.	.	.	-2	1.4

Remaining list, next part:
SMILES	Mtb H37Rv	YopH inh	Arbovirus anti	Mtb bLac sens	RecA splice inh	others
COc1ccc(S(=O)(=O)NCC(=O)N(CC(=O)NCC2CCCO2)Cc2ccccc2)cc1 (stereo unspecified)	.	.	.	-13	0.4
COc1ccc(C(=O)CC(=O)C(=O)Nc2ccc(C)cc2Cl)cc1	.	.	.	73	0.6
Cc1ccnc(N2CCCC(C(=O)Nc3ccc(C)c(C)c3)C2)n1 (stereo unspecified)	.	.	.	5	-0.5
CCOC(=O)C1=C(C)NC2=C(C(=O)C(C(=O)OCC)C(c3ccc(OC)cc3)C2)C1c1ccccn1 (stereo unspecified)	-2%	-11	10	-3	-0.2
CC(=O)c1ccc(NC(=O)CSc2ccc(-c3ccco3)nn2)cc1	.	.	.	-9	-2.4
CC1=CC(=C(C#N)C#N)c2ccccc2N1C	5%	.	6	2	-3.4
CC(C)N1CCN(Cc2ccc(C#CC(C)(C)O)s2)CC1CCO (stereo unspecified)	-1%	.	-1	4	-3.7
Cc1ccccc1-c1nc(CS(=O)(=O)CC(=O)NCc2ccc(F)cc2)c(C)o1	.	.	.	-4	0.9
O=C(NCCN1CCOCC1)c1cn(CCc2ccccc2)nn1	-8%	-34	11	-4	-1.9
Cc1cc(C(=O)Nc2ccc3c(c2)OCCO3)co1	-3%	-41	-4	-4	5.3	Arbovirus anti repeat=0

The final 4 records of the part above open the next one:
SMILES	Mtb H37Rv	YopH inh	Arbovirus anti	Mtb bLac sens	RecA splice inh	others
CC(C)N1CCN(Cc2ccc(C#CC(C)(C)O)s2)CC1CCO (stereo unspecified)	-1%	.	-1	4	-3.7
Cc1ccccc1-c1nc(CS(=O)(=O)CC(=O)NCc2ccc(F)cc2)c(C)o1	.	.	.	-4	0.9
O=C(NCCN1CCOCC1)c1cn(CCc2ccccc2)nn1	-8%	-34	11	-4	-1.9
Cc1cc(C(=O)Nc2ccc3c(c2)OCCO3)co1	-3%	-41	-4	-4	5.3	Arbovirus anti repeat=0
O=C(O)CN1C(=O)c2ccc(Oc3ccc4c(c3)C(=O)N(CC(=O)O)C4=O)cc2C1=O	-8%	.	.	3	4.2
c1ccc(-c2ccc(OCCOCCn3cncn3)cc2)cc1	14%	29	2	-1	0.4
O=C(O)c1ccccc1Nc1ccc(OC(F)F)cc1	-6%	.	8	-6	2.4
CC(C)(C)C(=O)Nc1nnc(SCc2cccc(F)c2)s1	13%	.	26	1	2.4
O=C(O)c1ccc2[nH]c3c(c2c1)CSCC3	-2%	-64	31*	0	2.7
c1cncc(CSc2ccc(-c3cccnc3)nn2)c1	-2%	.	6	-2	-0.6
O=C(Cc1ccccc1)N1CCN(C(=O)c2ccc([N+](=O)[O-])cc2)CC1	-4%	.	8	-2	2.7
CC1=Nc2ccccc2N=C(NC(=O)/C=C/C(=O)O)C1c1ccccc1 (stereo unspecified)	-2%	.	.	-8	-0.7
CCOC(=O)c1cccc(NC(=O)c2cnc3ccccc3n2)c1	8%	-16	-2	55	0.3
CCOc1ccc(CCNC(=O)COC(=O)COc2cc(C)cc(C)c2)cc1OCC	.	.	.	6	-1.3
COc1ccc(CN2CCN(Cc3ccccc3)C(CCO)C2)cc1OC (stereo unspecified)	-5%	.	-2	-8	1.2
N#Cc1cc2c(nc1SCC(=O)Nc1sc3c(c1C#N)CCC3)CCCC2	-15%	-41	-24	.	-1.9
COC(=O)c1sccc1S(=O)(=O)Nc1ccc(S(N)(=O)=O)cc1	-3%	.	.	1	-1.1
CCN(CC(=O)Nc1cc(Cl)ccc1C)C(=O)C1CCCCC1	1%	.	-3	-3	0.2
Cc1cccc(NC(=O)CCSc2nc(C)cc(C)n2)c1	-6%	-26	3	-7	6.1
CCOc1cccc2sc(Nc3nc4ccc(NC(C)=O)cc4s3)nc12	4%	-27	-7	-1	1.6
CCCCn1c(SCC(=O)Nc2cc(C(F)(F)F)cc(C(F)(F)F)c2)nnc1C(CC)N(C)C (stereo unspecified)	19%	-7	-16	5	-4.5
O=C1C2CCCCN2C(=O)N1CCCCN1CCN(c2ccc(F)cc2)CC1 (stereo unspecified)	.	.	.	1	-1.6
CC1(C)S[C@@H]2[C@H](NC(=O)COc3ccccc3)C(=O)N2C1C(=O)OCc1cc2ccccc2n1S(=O)(=O)c1ccccc1 (stereo partly specified)	.	.	.	-1	7.6
CCNC(=S)NCc1ccc2[nH]c(C)cc2c1	18%	-23	4	3	-2.2
O=C(Oc1cccc(-n2cnnn2)c1)c1ccccc1	5%	.	10	93	5.5
CCCn1c(SCN2C(=O)c3ccccc3C2=O)nc2cc(Cl)ccc2c1=O	2%	-25	-9	6	3.4
Cc1nonc1NC(=O)CSc1nnc(-c2ccoc2C)n1CC(C)C	5%	-34	6	-14	3.4
COc1cccc(-c2nn(C)c3sc(C(=O)NCc4ccc(C)o4)cc23)c1	0%	-33	-5	17	5.6
CCCNc1nc(=S)n(-c2ccccc2)c(C)c1C(C)=O	-3%	.	3	-6	-3.8

An excerpt. The share of hits here may be higher or lower than overall.
